Screening data: PubChem, Southern Research Institute
Mtb growth – Confirmatory growth inhibition assay against Mycobacterium tuberculosis H37Rv, potency (AID 1949); most inactive calls were filed without a number and no value below 0 was filed; inhibition, % at 10 µg/mL, or IC50 in µg/mL where a hit was titrated; 1.6% of 100,000 active;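 active means confirmed in a dose series; inconclusive means about 50% or more but not retested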;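 further: bacteria grown 7 days with compound before Alamar blue readout; 0% = untreated bacteria and 100% = reference antibiotic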
An asterisk follows results filed as active; i = inactive; ? = inconclusive.

SMILES,Mtb growth
COc1ccc(Cl)cc1S(=O)(=O)Nc1cccc(Cl)c1C,i
O=[N+]([O-])c1cc(-c2cnc3ccccc3n2)ccc1Oc1cccc2cccnc12,3%
CC(=O)c1cccc(NC(=O)Nc2c(C(C)C)cccc2C(C)C)c1,i
CC(C(=O)Nc1ccccc1N1CCN(C(=O)c2ccccc2)CC1)(c1ccccc1)c1ccccc1,i
COc1ccc(-c2c(C#N)c(N)nc3sc(C(=O)Nc4ccc(F)cc4)c(N)c23)cc1OC,i
CCC(=O)Nc1ccc(C(=O)Nc2ccccc2C(=O)NCC(C)C)cc1,45%
COc1ccc(-c2cc(C(=O)Nc3ccc(C)cc3Br)c3ccccc3n2)cc1,i
O=C(Nc1ccc(C(F)(F)F)cc1)C1=NCCN1,1%
CC(C)(C)C(=O)N1c2ccccc2CCc2ccccc21,i
COC(=O)c1c(NC(=O)C(C)N2C(=O)c3ccccc3C2=O)sc2c1CCC(C)C2 (stereo not drawn),i
Cc1noc(C)c1CSc1nnc2ccc3ccccc3n12,i
CCN(CC)C(=O)C1=C(C)NC(=S)NC1c1cc(C)c(OC)cc1C (stereo not drawn),i
COc1ccc(S(=O)(=O)N(CC(=O)Nc2cccc(Cl)c2)c2ccc(Cl)cc2)cc1,3%
Cc1cccc(OC(C)C(=O)NCc2cccnc2)c1C (stereo not drawn),i
O=C(Oc1cc(=O)oc2ccccc12)c1ccc(-c2ccccc2)cc1,i
O=[N+]([O-])c1c(Nc2ccccc2)[nH]c2ccccc12,9.3µg/mL*
O=C(CC(Nc1ccc(Cl)cc1)C(=O)O)c1ccccc1 (stereo not drawn),i
CCOc1ccc(OCC)c(S(=O)(=O)NCc2cccnc2)c1,0%
O=S(=O)(NC(c1ccccc1)c1ccccc1)c1cccs1,i
CCOC(=O)C(CCCCOc1ccccc1C)C(=O)OCC,2%
CCOC(=O)c1c(NC(=O)Cn2cnc3sc(C)c(C)c3c2=O)sc2c1CCCC2,i
COc1ccc(NC(=O)CSc2nc3c(c(=O)n(C)c(=O)n3C)n2Cc2ccccc2)cc1Cl,i
Cc1oc(-c2ccc(F)cc2)cc1-c1nn2c(-c3ccccc3)nnc2s1,i
CCCOc1cccc(OCCCN2CCN(C)CC2)c1,i
Cc1ccc(C(=O)Nc2ccc([N+](=O)[O-])cc2)cc1,1%
Cc1cc(NC(=O)CCC(=O)O)ccc1NC(=O)c1ccccc1,i
O=C1CC(c2ccc(Cl)cc2)n2ncnc2N1 (stereo not drawn),i
O=C(O)c1ccc(NC(=O)c2cccc(S(=O)(=O)NC3CCCCC3)c2)cc1,i
CCOC(=O)c1sc2nc3c4ccccc4c(-c4ccccc4)nn3c(=O)c2c1C,i
Cn1nc(-c2ccc(N3CCCCC3)c(NC(=O)c3cccs3)c2)c2ccccc2c1=O,?
Cc1ccc(-c2nnc(SCC(=O)n3c4ccccc4c4ccccc43)o2)cc1,i
O=C(CCC1CCCC1)N1CCN(C(=O)C2CC2)CC1,i
CC(C)(C)NC(=S)Nc1ccc(Br)cc1,i
COc1ccc(NC(CNS(=O)(=O)c2ccc(Cl)cc2)c2ccccc2)cc1 (stereo not drawn),i
CCN(CC)C(=O)CSc1nc2sc3c(c2c(=O)n1-c1ccc(Cl)cc1)CCC3,i
COc1ccc(S(=O)(=O)Nc2ccc(CC#N)cc2)c(Cl)c1Cl,i
CNc1ccccc1C(=O)N/C(N)=N\c1nc(C)c2cc(C)ccc2n1,i
CCOC(=O)C1=CN(C(C)C)C=C(C(=O)OCC)C1c1cccc(OCC)c1,i
COc1ccc(Br)cc1CN1CCN(C(=O)c2cc(OC)c(OC)c(OC)c2)CC1,i
S=C(Nc1ccccc1)NC1c2ccccc2Oc2ccccc21,0%
O=S(=O)(Nc1ccc(O)cc1)c1ccc2oc3ccc(S(=O)(=O)Nc4ccc(O)cc4)cc3c2c1,i
COC(=O)c1ccc(COc2ccc(F)cc2)cc1,i
CCOC(=O)N1CCN(C(=O)c2cc(-c3ccc(Cl)cc3Cl)on2)CC1,i
Cc1nc2cc(NC(=O)NCCC3=CCCCC3)ccc2o1,2%
O=C1CC(c2ccccc2Cl)CC2=C1C(c1cccs1)Nc1ccccc1N2 (stereo not drawn),i
Cc1cc(C)cc(NS(=O)(=O)c2ccc3c(c2)OCCO3)c1,3%
Cc1cccc(NC(=O)CSc2ccccn2)c1C,i
c1coc(CNc2nc3ccccc3[nH]2)c1,i
CCOC(=O)c1c(NC(=O)c2cnn3cccnc23)sc2c1CCCC2,i
Cc1onc(-c2ccccc2)c1C(=O)Nc1ccc(S(=O)(=O)N2CCCC2)cc1,i
O=C(Nc1ccccc1)Nc1ccc(S(=O)(=O)Nc2cccc(C(F)(F)F)c2)cc1,2.3µg/mL*
COc1cccc(N2CCN(Cc3nc(N)nc(N4CCCc5ccccc54)n3)CC2)c1,21%
O=S(=O)(/N=C(\Nc1cccc(Cl)c1)c1ccccc1)c1ccccc1,i
Cc1ccc(CNC(=O)CC(C)C)cc1,i
Cc1cc(=O)[nH]c(Nc2cccc(Br)c2)n1,i
N#Cc1cccc(NC(=O)c2cccc([N+](=O)[O-])c2)c1,0%
CC(=O)Nc1ccc(S(=O)(=O)N2CCN(C(=O)N(C)C)CC2)cc1,0%
CN(C)CCC(=O)c1ccc(Br)cc1,0.61µg/mL*
CCC(CC)C(=O)Nc1cccc(C(=O)c2ccccc2)c1,i
CCCCN(c1nc(C)cc(OC)n1)S(=O)(=O)c1ccc(C)cc1,8%

Other structures follow.
SMILES,Mtb growth
COc1ccc(-c2csc(C)n2)cc1F,i
CCOc1ccccc1NC(=O)c1ccc(OCC(=O)Nc2c(CC)cccc2CC)cc1,2%
COc1ccc(Cl)cc1NC(=S)NC(=O)CSc1ccc(Cl)cc1,26%
CCOc1c(Cl)cc(C(=O)Nc2nc3ccc(S(C)(=O)=O)cc3s2)cc1Cl,5%
COc1ccccc1NC(=O)c1cc(-c2ccc(OC)c(OC)c2)nc2ccccc12,i
CCC(C)c1ccc(OCC(=O)Nc2cccc(F)c2)cc1 (stereo not drawn),20%
NC(=O)CC1C(=O)N(c2ccc(Cl)cc2)C(=S)N1Cc1cccnc1 (stereo not drawn),i
CC(=O)c1ccc(NC(=S)NCc2ccncc2)cc1,i
COc1cc(C(C)=O)ccc1OCCCN1CCN(C)CC1,i
COC(=O)C1=C(C)N(Cc2ccccc2)C(=O)C1(NC(=O)c1cccs1)C(F)(F)F (stereo not drawn),i
c1ccc(OCCSC2=NCCN2)cc1,i
CSc1ccccc1NC(=O)C1COc2ccccc2O1 (stereo not drawn),?
COCCCNCCCSc1ccc(Cl)cc1,i
CC(=O)Nc1ccc(Nc2c3ccccc3nc3ccccc23)cc1,?
O=C(NCc1ccccc1Cl)C1CCN(C(=O)c2ccc(-c3ccccc3)cc2)CC1,i
Cc1cn2c3ccccc3n(CCN3CCOCC3)c2n1,i
CCN(CC)c1ccc(CNc2ccc(Br)cn2)cc1,i
COc1ccc(N2CCN(CCN)CC2)cc1,i
c1ccc(CNCCCOc2cccc3ccccc23)cc1,4.9µg/mL*
CC(C)c1ccc(C2/C(=C(\O)c3ccc(F)cc3)C(=O)C(=O)N2c2nccs2)cc1 (stereo not drawn),i
COc1ccc(OC)c(NC(=O)NCc2ccc(F)cc2)c1,i
O=c1c2c3c(sc2nc2c4ccccc4c(N4CCCCC4)nn12)CCC3,i
Cc1ccc2c(c1)C1(SCCS1)C(=O)N2,i
O=c1oc(-c2ccccc2)nc2c1cnn2-c1ccccc1,0%
O=C(Nc1nccs1)c1cn(-c2ccccc2)nc1-c1ccncc1,1%
CCN(CC)c1ccc(NC(=S)Nc2ccc(F)c(Cl)c2)cc1,7.6µg/mL*
CCC(C)c1ccc(NC(=S)Nc2cn(CC)nc2C(N)=O)cc1 (stereo not drawn),i
CCN1CCN(c2ccc(NC(=S)NC(=O)C(C)C)cc2)CC1,i
S=C(NC1CCCCC1)N1CCN(c2ccccc2)CC1,i
O=C(c1ccc([N+](=O)[O-])cc1Cl)N1CCCCCC1,i
Cc1cc(Br)c2[nH]c(O)c(N=NC(=O)COc3ccc4ccccc4c3)c2c1,12µg/mL*
O=C(COc1cccc2ccccc12)Nc1ccccc1NC(=O)COc1cccc2ccccc12,i
CC(C)CN(CC(C)C)C(=O)COc1ccc(Cl)cc1Cl,2%
O=C(NC1CCCC1)c1ccc(COCC(F)(F)C(F)F)o1,i
CCc1cc2c(=O)n(CC(=O)Nc3ccccc3OC)cnc2s1,i
COc1ccc(Cc2noc(-c3ccccc3Cl)n2)cc1,7%
Cc1cc(C(=O)NC(C)c2ccc3c(c2)OCO3)cs1 (stereo not drawn),i
CCc1cc(Br)cc(C)c1NC(=O)CSc1nnc(Cc2ccccc2)n1-c1ccccc1,2%
c1ccc(-c2csc(Nc3ccccn3)n2)cc1,10%
COc1cc(NC(=S)Nc2ccc(Br)cc2Cl)cc(OC)c1OC,i

Retrieved one by one from the list above, 3 records:
SMILES,Mtb growth
O=c1oc(-c2ccccc2)nc2c1cnn2-c1ccccc1,0%
O=C(Nc1nccs1)c1cn(-c2ccccc2)nc1-c1ccncc1,1%
COc1ccc(OC)c(NC(=O)NCc2ccc(F)cc2)c1,i

The listing picks up; the two compounds before the break are reprinted first.
SMILES,Mtb growth
c1ccc(-c2csc(Nc3ccccn3)n2)cc1,10%
COc1cc(NC(=S)Nc2ccc(Br)cc2Cl)cc(OC)c1OC,i
CC(C)C(=O)NC(=S)Nc1ccccc1C(F)(F)F,i
Cc1ccc(C(=O)CSc2nc3sc4c(c3c(=O)n2-c2ccccc2)CCC4)s1,25%
CC1(C)NC(=O)N(CCCOc2ccccc2CO)C1=O,i
COc1ccc(-c2nc(Nc3ccc(C(=O)O)cc3)sc2C)cc1,i
O=C(Nc1nonc1NC(=O)c1ccccc1Cl)c1ccccc1Cl,1%
Cc1cc(=O)oc2cc(NC(=S)NNC(=O)CSCc3c(F)cccc3Cl)ccc12,i
CCC(=O)Nc1ccc(C(=O)Nc2ccc(O)cc2C(=O)O)cc1,i
COC(=O)c1c(NC(=O)C(=O)NCc2cccnc2)sc2c1CCC2,i
COc1ccccc1NC(=S)Nc1cccc(F)c1,i
Cc1cc(=O)oc2ccc(OC(=O)CC(C)C)cc12,i
COc1ccc(C(=O)N2CCc3ccccc32)cc1,i
CN(CC(=O)N1CCCCCC1)S(=O)(=O)c1ccccc1,i
COc1c(C)cccc1C(=O)Nc1ccc(N2CCCC2)cc1,4.8µg/mL*
NS(=O)(=O)c1ccc(NC(=O)CSc2nsc(SCC(=O)Nc3ccc(S(N)(=O)=O)cc3)n2)cc1,i
COc1ccc(-n2c3c(cc(C(=O)NCC(=O)c4ccccc4)c2=O)C(=O)CC(C)(C)C3)cc1,i
CC(C)C(=O)N1CCN(c2ccc(NC(=O)CSc3ccc(Cl)cc3)cc2)CC1,i
O=C(COc1ccc(NC(=O)c2ccccc2[N+](=O)[O-])cc1)c1ccc(F)cc1,i
CS(=O)(=O)N(CC(=O)Nc1c(F)cccc1F)c1ccc(Br)cc1,i
Clc1ccc(Cl)c(OCCCCN2CCNCC2)c1,0%
Oc1cccc(Nc2nc(-c3cccs3)cs2)c1,i

Reprinted from the part before: three compounds; new compounds follow.
SMILES,Mtb growth
CS(=O)(=O)N(CC(=O)Nc1c(F)cccc1F)c1ccc(Br)cc1,i
Clc1ccc(Cl)c(OCCCCN2CCNCC2)c1,0%
Oc1cccc(Nc2nc(-c3cccs3)cs2)c1,i
Cc1ccc2c(C)nc(Nc3nc(CSc4nc5ccccc5s4)cc(=O)[nH]3)nc2c1,0.38µg/mL*
OCCNCCOc1ccc(Cl)cc1Br,i
CCOc1ccc(/C=C/c2ccc3cccc(OC)c3n2)cc1OC,i
CCOCc1nnc(NC(=O)C2CCCO2)s1 (stereo not drawn),i
CCCCC(=O)Nc1ccc(C(=O)NCc2ccco2)cc1,4%
O=C(NCc1cccnc1)C1CCN(S(=O)(=O)c2cc(Cl)ccc2Cl)CC1,i
COc1ccccc1NC(=O)C1=C(C)Nc2ncnn2C1c1ccncc1 (stereo not drawn),i
Cc1c(-c2cccc(Cl)c2)nc2ccccc2c1C(=O)N1CCOCC1,i
COc1ccc2cc(Br)ccc2c1CC(=O)NCc1ccccn1,i
CCC(C(=O)Nc1ccc(Br)cn1)c1ccccc1 (stereo not drawn),i
O=C1Nc2ccccc2C12OCC(COc1ccc(Cl)cc1)O2 (stereo not drawn),1%
S=c1[nH]c2cc(Cl)c3cccnc3c2o1,i
O=C(CC12CC3CC(CC(C3)C1)C2)Nc1ccccc1N1CCCC1,5%
Cn1c(=O)c2ncn(CC(=O)Nc3ccccc3C(=O)O)c2n(C)c1=O,1%
Cn1nnc2cc(NC(=O)Nc3cccc(F)c3)ccc21,i
Cc1cc(NC(=O)c2ccc(COc3ccc(Cl)c(C)c3)o2)no1,i
CC1(C)CC(N(Cc2cccs2)C(=O)c2ccco2)CCO1 (stereo not drawn),i
Cc1sc2ncnc(SCC(=O)NCC3CCCO3)c2c1-c1ccc(Cl)cc1 (stereo not drawn),3%
COc1cccc(C(=O)N2CCC(C(=O)O)CC2)c1,i
COCCNC(=O)c1ccc(OCc2ccccc2)cc1,i

The list is partial (hit frequency here may not be typical).
